# Assay outcomes deposited in PubChem BioAssay by National Center for Advancing Translational Sciences (NCATS).
# VDR inhibitor = inhibitors of human vitamin D receptor. VDR-SRC2-3 peptide fluorescence polarization, 2 h. Potency, µM, for the others: max response, negative = inhibition, actives largely listed as inhibitors. 0.93% of 400,000 active; active = well fitted inhibition curve with a large enough effect; inconclusive = small, poorly fitted or top-dose-only effect, or another doubt; inactive = no such curve, though single readings can be large or run the other way; also: series mostly up to about 120 µM
# Target sequence (P11473 whole entry, looked up): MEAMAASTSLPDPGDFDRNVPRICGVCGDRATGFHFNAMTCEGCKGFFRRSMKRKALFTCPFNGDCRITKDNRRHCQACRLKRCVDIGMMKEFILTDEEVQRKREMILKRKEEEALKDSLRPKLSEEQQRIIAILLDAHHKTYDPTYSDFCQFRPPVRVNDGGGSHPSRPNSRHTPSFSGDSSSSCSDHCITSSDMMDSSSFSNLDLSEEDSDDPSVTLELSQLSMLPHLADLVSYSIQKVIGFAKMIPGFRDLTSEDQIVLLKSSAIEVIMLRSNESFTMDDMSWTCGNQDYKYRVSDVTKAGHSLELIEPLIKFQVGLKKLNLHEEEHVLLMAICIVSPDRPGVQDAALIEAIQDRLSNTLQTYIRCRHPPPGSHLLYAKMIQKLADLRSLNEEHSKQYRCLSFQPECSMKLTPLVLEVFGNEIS
#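 VDR–SRC2-3 interaction, FP format. Cmpds 23 nl via pintool, brief spin, 2 h ambient incubation.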
# Starred values were filed as active, the others as inactive; ? = inconclusive; & = joins results of further samples. % is scaled to controls: 0 for no effect and ±100 for the full control effect; potency is read from the fitted curve at half-maximal effect. Not all compounds are listed (hit frequency here may not be typical).
SMILES,VDR inhibitor
O=C(CSc1n[nH]c(-c2cccs2)n1)N1CCN(S(=O)(=O)c2ccc3ccccc3c2)CC1,27%
NC(=O)C1CCN(C(=O)C2CC(=O)N(Cc3ccccc3)C2)CC1 (stereo not drawn),-12%
CCOc1ccccc1C(=O)Oc1cc(C)[nH]c(=O)c1[N+](=O)[O-],-5%
CCOc1ccc(Nc2c(S(=O)(=O)c3ccc(Cl)cc3)cnc3ccc(OCC)cc23)cc1,12%
Cc1[nH]c2ccc(C(=O)N3CCCC3)cc2c1C,-2%
CCc1ccccc1NS(=O)(=O)c1ccc2[nH]cc(C(=O)NCc3ccco3)c(=O)c2c1,11%
CCCn1cc(S(=O)(=O)c2ccc(OC)cc2)c(=O)c2cc(F)c(N3CCCC(C)C3)cc21 (stereo not drawn),10%
O=C1N=C(N2CCCCC2)SC1=C1CCCCC1,11%
C=CCn1c(SCC(=O)NCCOC)nc2scc(-c3ccco3)c2c1=O,-9%
CCOC(=O)Cn1ccc(NC(=O)COc2ccc(F)cc2F)n1,-2%
Cc1nc(C)c(/C(O)=C/c2nc3ccccc3oc2=O)s1,-3%
COc1ccc(-c2nnc3ccc(SCC(=O)N4CCCCC4)nn23)cc1OC,-10%
c1ccc(CCNc2nc(-c3ccccn3)nc3ccccc23)cc1,-10%
CC1=C(C(=O)Nc2ccc(F)cc2F)C2(CCN(C(C)C)CC2)OC1=O,5%
C=CCNC(=S)N1CCN(CCNC2=CC(=O)CC(C)(C)C2)CC1,-13%
CC(=O)c1ccc(C(=O)Nc2ccc(N3CCOCC3)cc2)cc1,26%
COc1ccc(OC)c(NC(=O)CCc2nc(-c3ccc(C)cc3)no2)c1,-20%
Cc1ccc(-c2nc3ncccc3o2)cc1NC(=O)c1ccc(-c2cccc(Cl)c2C)o1,-2%
O=CNn1cnc2c(oc3nc(-c4ccccc4)cc(-c4ccco4)c32)c1=O,3%
CC(C)=CCc1c([C@@H]2CCc3ccc(O)cc3O2)cc2c(c1O)OC(C)(C)C=C2,-13%
CSc1ccccc1NC(=O)COc1ccc(Cl)cc1Cl,?
O=C1/C(=C/c2cccnc2)SC(=S)N1Nc1ccccc1,-5%
CC(C)(C)SCCNC(=O)COc1ccc(Cl)cc1,-12%
Cn1c(CC(=O)Nc2ccccc2)cc2ccccc21,-7%
O=C(CCc1ccccc1)NC(=S)Nc1ccc(S(=O)(=O)N2CCOCC2)cc1,-4%
COc1ccc(-n2c(=O)c3c4c(sc3n(CC(=O)C(C)(C)C)c2=O)CCCC4)c(OC)c1,5%
CC1CCN(S(=O)(=O)c2ccc3c(c2)c(=O)c(C(=O)N2CCOCC2)cn3C)CC1,-9%
O=C(O)CCCn1cc(NC(=O)COc2ccccc2)cn1,2%
O=S(=O)(/N=C(/Sc1ccccc1)c1ccccc1)c1ccc(Cl)cc1,50µM*
CCOC(=O)c1sc(C(=O)OCC)c(OCCO)c1OCCO,5%
CCN1CCN(C(=O)Nc2ccccc2OC)CC1,5%
O=C(C1Cc2ccccc2CN1S(=O)(=O)c1ccc(F)cc1)N1CCCCC1 (stereo not drawn),2%
CCN(CC)S(=O)(=O)c1ccc(C)c(NC(=O)Cn2c(=O)cnc3ccccc32)c1,-5%
NC(=O)C1CCN(C(=O)c2ccc(Cl)c(S(=O)(=O)N3CCCCCC3)c2)CC1,-4%
Cc1nn(C)c(C)c1S(=O)(=O)N(CC(=O)Nc1ccccn1)c1ccc(C(C)C)cc1,-11%
CCC(=O)c1ccc(N2CCCCCC2)c(F)c1,1%
CCOc1ccc(CN2CCN(S(=O)(=O)c3ccc(NC(C)=O)cc3)CC2)cc1,-19%
Cn1cc([N+](=O)[O-])c(C(=O)Nc2cc(Oc3cccnc3)cc([N+](=O)[O-])c2)n1,6%
O=C(CSc1nc2nn(-c3ccccc3)c(=O)c-2c2n1CCCCC2)Nc1ccc(F)c(F)c1,0%
CCCN(CCC)C(=S)NC(=O)c1ccc(Cl)cc1Cl,-13%
c1ccc2nc(-c3ccc(-n4ccnc4)cc3)ccc2c1,10%
N=c1oc2ccccc2cc1C(=O)NC1CCCCCC1,-1%
CC1=C(C(N)=O)C(c2cccc(F)c2)n2nc(SCc3ccccc3)nc2N1 (stereo not drawn),0%
Fc1ccc(Sc2nc(-c3ccccc3)nnc2C(F)(F)F)cc1,?
Cc1noc(-c2ccccc2OC(=O)c2ccccc2)n1,-7%
COc1nc(Cl)cn(-c2ccc(Cl)cc2)c1=O,-21%
COc1ccc(/C=C(/NC(=O)c2ccccc2)C(=O)N/N=C/c2cccs2)cc1OC,-12%
O=C(NCc1cccnc1)c1cnn2ccccc12,-7%
Cc1cc(Cn2cnc3c2C[C@@H](C(=O)O)N(C(=O)C(c2ccccc2)c2ccccc2)C3)ccc1N,4%
O=C(Nc1c2c(nn1-c1ccc(F)cc1)CSC2)c1ccc(S(=O)(=O)N2CCOCC2)cc1,0%

# Exported with bars between the fields: 5 of the compounds above
SMILES | VDR inhibitor
Cc1noc(-c2ccccc2OC(=O)c2ccccc2)n1 | -7%
COc1ccc(/C=C(/NC(=O)c2ccccc2)C(=O)N/N=C/c2cccs2)cc1OC | -12%
COc1nc(Cl)cn(-c2ccc(Cl)cc2)c1=O | -21%
CC1=C(C(N)=O)C(c2cccc(F)c2)n2nc(SCc3ccccc3)nc2N1 (stereo not drawn) | 0%
N=c1oc2ccccc2cc1C(=O)NC1CCCCCC1 | -1%

# New compounds follow
SMILES,VDR inhibitor
CCOc1ccc(CCNC(=O)c2ccc3ccccc3n2)cc1OCC,-2%
CCN(CC)c1ccc(NC(=O)c2ccc(=O)[nH]c2)cc1S(=O)(=O)Nc1ccccc1OC,32µM*
COc1ccc(NC2=C(c3ccccc3)C(=O)c3ccccc32)cc1Cl,2%
CCC1Sc2ccc(S(=O)(=O)CCC(=O)Nc3cccc(Br)c3)cc2NC1=O (stereo not drawn),-28%
CN(C)c1nc(N(C)C)c2cnn(C)c2n1,-3%
CC(/C=C1\SC(=S)N(CC(=O)O)C1=O)=C\c1ccccc1,45µM*
COc1ccc(N(CC(=O)N2CCN(C)CC2)S(=O)(=O)c2ccccc2)cc1,-1%
O=C(CN1CCC(NC(=O)c2ccccc2Cl)CC1)NCc1ccccc1,16%
COc1ccc(Cn2ccnc2SCC(=O)Nc2ccc3c(c2)OCO3)cc1,16%
Cc1ccc(OCCCCn2cnc3ccccc32)c(C)c1,2%
O=C(NC12CC3CC(CC(C3)C1)C2)c1cnccn1,-3%
O=C(Nc1ccn(CCCNCCN2CCOCC2)c(=O)n1)OCc1ccccc1,-3%
O=CN1CCN(C(=O)c2ccccc2F)CC1,-10%
CC(C)CCNC(=O)C(=O)Nc1cc2c3c(c1)CCC(=O)N3CCC2,-5%
COc1ccc(Nc2nnc(SCc3cn4c(C)cccc4n3)s2)cc1,-14%
O=C(CN1CCN(S(=O)(=O)c2cccc(F)c2)CC1)NCC1(N2CCOCC2)CCCCC1,7%
CCc1nc2n[nH]c(N)c2c2c1CCCC2,-7%
CCOc1ccc(N(CC(=O)NCc2ccc(Cl)cc2)S(=O)(=O)c2ccccc2)cc1,-2%
CCc1ccccc1NS(=O)(=O)c1ccc2c(c1)CCCN2C(=O)C1CCC1,-1%
Cc1ccc(C(=O)CC(=O)COc2ccc(Cl)cc2C)cc1,-4%
Cc1cc(N/N=C/c2ccco2)c2ccccc2n1,?
CC1(C)CC=CC(COC(=O)c2ccccc2C(=O)O)C1 (stereo not drawn),-17%
COc1ccc(C2CC(c3ccc(Cl)cc3)Nc3nc(NC(=O)c4ccco4)nn32)cc1 (stereo not drawn),2%
Cc1ccc(C2=NNC(C(O)C(O)C(O)CO)S2)cc1 (stereo not drawn),-28%
C=CCN1CCC(=O)C(C(=O)OCC)=C1C(=O)OCC,-9%
CN(Cc1ccc(F)cc1)C(=O)c1ccc(NS(=O)(=O)c2ccc3[nH]c(=O)[nH]c3c2)cc1,-14%
O=C(NCc1ccc(F)cc1)C(=O)Nc1ccc2nc3n(c(=O)c2c1)CCCCC3,21%
COC(=O)C(C(=O)OC)C(c1ccccc1)C(C(=O)c1ccccc1)[N+](=O)[O-] (stereo not drawn),12%
O=C(c1ccccc1)c1ccc2nc(N3CCN(c4ccc(F)cc4)CC3)c3nncn3c2c1,-5%
O=C(CCC1CCCN(C(=O)c2ccco2)C1)NCc1ccccc1F (stereo not drawn),-1%
Cc1ccc(OCCN2C(=O)S/C(=C\c3ccc(C)o3)C2=O)cc1,?
CC1(C)Cc2c(C#N)c(N3CCOCC3)nc(-c3ccccc3)c2CO1,-14%
CN1CCN(c2ncc3nc(-c4cccc(C#N)c4)c(=O)n(CCC#N)c3n2)CC1,3%
CC1(c2ccc(Cl)cc2)NC(=S)N2C1NC(=S)N2c1ccccc1 (stereo not drawn),1%
Cc1cccn2c(=O)cc(COc3ccc(NC(=O)COc4ccc(F)cc4)cc3)nc12,3%
COc1ccc(NC(=O)Cn2nnc(C(=O)NCc3ccccc3)c2N)c(OC)c1,-4%
Cc1ccc(CNc2oc(-c3ccc(COc4ccc(C)cc4)o3)nc2C#N)cc1,13%
Cn1c(SCC(=O)NC2CCCC2)nnc1-c1ccccn1,-10%
O=C(CN1CCN(c2ccccn2)CC1)N(c1ccccc1)c1ccc2ccccc2c1,5%
O=C(NNC(=O)c1ccccc1)C(=O)N1CCCCC1,-5%
COc1cccc(NC(=O)Cn2c(=O)n(CCc3cccc(C)c3)c(=O)c3ccccc32)c1,-27%
CCOC(=O)C1CCN(C(=O)c2ccc3c(=O)n4nc(Nc5ccccc5)sc4nc3c2)CC1,10%
CCN1CCN(c2ccc(S(=O)(=O)N3CCOCC3)cc2NC(=O)c2ccc(C(F)(F)F)cc2)CC1,-27%
O=C(CSc1ccc2nnc(-c3ccc(F)cc3)n2n1)N1CCCc2ccccc21,-23%
O=C(CCCN1C(=O)/C(=C\c2cccs2)SC1=S)Nc1ccc(O)cc1C(=O)O,-16%
C[C@H](NC(=O)[C@@H]1Cc2ccccc2CN1)C(=O)Nc1ccc2c(c1)OCO2,19%
O=C1CCC(c2ccc3c(c2)CCC3)=NN1,-1%
CC(=O)Nc1ccc(NC(=O)c2cccc(S(=O)(=O)N3CCCCCC3)c2)cc1,-20%
O=S(=O)(c1cccs1)N1CCN(Cc2ccccc2)CC1,11%
COc1ccc(-c2nn3c(=O)cc(CN4CCN(C(=O)/C=C/c5ccccc5)CC4)nc3s2)cc1,9%

# Other entries follow:
SMILES,VDR inhibitor
Cc1nc2ccccc2n1CC(=O)N/N=C/c1cccs1,-1%
CSCCC(NS(=O)(=O)c1ccc(Cl)cc1)C(=O)OCC(=O)NC1CC1 (stereo not drawn),-21%
Cc1ccc(OS(=O)(=O)c2ccccc2)c(/C=N/N=C2\NC(=O)C(C)S2)c1 (stereo not drawn),1%
COc1ccc2nc(-c3ccccc3)nc(SC)c2c1,-12%
Cc1ccc(CN2CC(C(=O)N3CCN(S(=O)(=O)c4ccc(C)cc4C)CC3)CC2=O)cc1 (stereo not drawn),0%
COc1ccc(C(=O)Nc2cc(NC(=O)c3ccco3)ccc2OC)cc1Cl,-18%
C=CCc1cc(/C=C2/NC(=O)NC2=O)cc(OCC)c1O,15%
NC(=O)NCc1cccc(Cl)c1,-2%
CCC(CC)N1CCN(CC2CC=CCC2)CC1 (stereo not drawn),-19%
NC(=O)/C(=C/c1cccnc1)NC(=O)c1ccccc1,-5%
CCCC(C(=O)OCCN(CC)CC)(c1ccccc1)c1ccccc1,2%&-4%&4%&10%
COc1ccc(CCCc2nnc(SCC(=O)Nc3nc(C)cs3)n2C)cc1C,-1%
Cc1cccc(-c2c3c(=O)n(C)c(=O)n(C)c3c3c(C)nc4ccccc4n23)c1,-12%
CC(C)(C)c1ccc(OCC(O)CN2CCN(c3ccccn3)CC2)cc1 (stereo not drawn),-4%
O=C(CSc1nc2sc3c(c2c(=O)n1-c1ccccc1)CCCC3)NCc1ccco1,-9%
Cc1cc(C)n(-c2nc3ccccc3nc2NCCc2ccccc2)n1,0%
COc1cccc(/C=N/Nc2ncnc3c2ncn3Cc2ccccc2)c1O,-15%
CCOc1ccc2nc(SCC)[nH]c2c1,-3%
CCOC(=O)N1CCN(Cc2nnc(-c3ccccc3Cl)o2)CC1,4%
COc1ccc(NC(=O)CCc2c(C)nn(-c3ccc(N4CCOCC4)nn3)c2C)cc1,5%

# Given as labelled records: part of the list above.
COc1ccc(CCCc2nnc(SCC(=O)Nc3nc(C)cs3)n2C)cc1C
  VDR inhibitor: -1%
O=C(CSc1nc2sc3c(c2c(=O)n1-c1ccccc1)CCCC3)NCc1ccco1
  VDR inhibitor: -9%
CCCC(C(=O)OCCN(CC)CC)(c1ccccc1)c1ccccc1
  VDR inhibitor: 2%&-4%&4%&10%
Cc1cccc(-c2c3c(=O)n(C)c(=O)n(C)c3c3c(C)nc4ccccc4n23)c1
  VDR inhibitor: -12%

# Next part:
SMILES,VDR inhibitor
CC(=O)N1CN(C2CCCC2)Cc2c1sc1c2CCCC1,-3%
O=C(CCn1c(=O)oc2ccccc21)N1CCN(c2ccc(F)cc2)CC1,-24%
COc1ccc(C)cc1NC(=O)COC(=O)C1CC1,4%
CC1CCN(c2nc3ccc(C(=O)O)cc3s2)CC1,-4%
CCCOC(=O)C1C2C=CC(C3CC23)C1C(=O)OCC(=O)c1ccccc1 (stereo not drawn),-1%
O=C(Nc1cccc(F)c1)C1CCCCC1,-8%
CCCn1c(=O)[nH]c(=O)c2c1nc(-c1ccc(C(F)(F)F)cc1)n2CCOC,-10%
Cc1onc(-c2ccccc2Cl)c1C(=O)NCc1ccc(S(N)(=O)=O)cc1,1%
CCCOn1c(-n2nc(C)cc2C)nc2ccccc2c1=O,6%
CC(C)[C@H](NC(=O)c1c(F)cccc1F)C(=O)N1CCN(c2ccc(F)cc2)CC1,-13%
Cc1cc(C(=O)Nc2cccc(NC(=O)c3ccco3)c2)ccc1[N+](=O)[O-],-4%
Cc1cc(C)nc(-n2nc(C)cc2NC(=O)CN2CCCC(C)C2)n1 (stereo not drawn),7%
COc1cc(C(=O)O)cc(OC)c1OCc1cc(C(=O)O)oc1C,4%
